High-throughput results as filed in PubChem BioAssay.
Env fusion inh = blocks HIV Env-driven cell-cell fusion | HeLa-JRFL Env/CEM21 cell fusion, luciferase | inhibition, % at 12.3 µM | 360,000 tested, 1.1% active | AID 651610;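 active = mean replicate inhibition score of at least 50 and every replicate individually at or above 50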;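 also: 0% = plate neutral controls and 100% = maraviroc near 300 nM; one replicate is shown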
MT1-MMP act inh = inhibitors of human MT1-MMP activation; HT1080 RFP-PRO-GFP cells, GFP/RFP ratio fluorescence, overnight; percent of plate control window, DMSO zero; P50281; 360,000 tested, 0.061% active; GFP/RFP ratio change, % at 20 µM; AID 651647;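 active = GFP/RFP ratio change of at least 30% with cell ATP level not reduced by more than half and red fluorescence within 50% of control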; also: strong numbers were not always called active
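Material – HT1080 RFP-PRO-GFP cells · Control set – DMSO wells and RFP-L50D-GFP cells · Incubation – overnight cell settling, then overnight compound exposure, 37 °C, 5% CO2 · Compound dosing – single-point 20 µM compound, 1% DMSO · Read-out – GFP/RFP fluorescence ratio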
CSC inhib = blocks cancer stem cells; cancer stem cell-like cells viability, luminescence; inhibition, % at 7.5 µM; 300,000 tested, 1.1% active; AID 2717;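 active = mean at 75% or more and at least half the replicates too; tested in HMLE shEcad cells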;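 also: 0% = median of negative and 100% = median of positive control wells; the first replicate is given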
eIF4H inh = inhibitors of RNA binding by human eIF4H; Q15056; eIF4H fluorescence polarization binding assay; inhibition, % at 35 µM; 290,000 tested, 0.94% active;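 active = 50% or more with normal probe brightness, or confirmed in later tests; about a fifth of its hits are not listed in these tables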;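 also: calls also rest on retests at 20 µM and on dose response follow-up; 0% = protein and probe with vehicle and 100% = probe without protein; strong numbers were not always called active; many hits fall short of the cut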
UUG fidelity = alters start codon recognition fidelity in yeast. activity score, % at 18.7 µM. 350,000 tested, 0.13% active. S. cerevisiae UUG-firefly luciferase reporter, luminescence/redox ratio;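 active = replicate mean at a twofold rise or more, about +100% in these data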;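 also: firefly luciferase made from a UUG start codon reports start codon fidelity; reporter light over untreated wells divided by growth signal over untreated wells; some hits fall short of that in this replicate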
Rce1 inh = yeast Ras-converting enzyme inhibition; calls only; Q03530; 290,000 tested, 0.27% active; yeast membranes, quenched prenylated peptide cleavage fluorescence;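 active = fall in fluorescence gain of 50% or more versus controls, with final raw signal at or below 3038400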;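 also: plate controls were neutral control wells for no effect and wells lacking membranes for full effect; tested at 10 µM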
Target sequence (Q03530 whole entry, looked up): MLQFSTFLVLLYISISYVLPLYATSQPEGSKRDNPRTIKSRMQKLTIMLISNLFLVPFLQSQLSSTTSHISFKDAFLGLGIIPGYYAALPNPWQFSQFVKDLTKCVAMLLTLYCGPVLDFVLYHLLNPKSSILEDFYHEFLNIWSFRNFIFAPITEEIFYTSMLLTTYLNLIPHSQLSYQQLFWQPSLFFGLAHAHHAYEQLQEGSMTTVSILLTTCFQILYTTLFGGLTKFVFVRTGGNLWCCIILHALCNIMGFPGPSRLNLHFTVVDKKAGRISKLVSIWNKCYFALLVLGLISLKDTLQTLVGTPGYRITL
PABP FP inh = PABP-poly(A) binding inhibition | P11940 | PABP-poly(A) RNA binding, fluorescence polarization | inhibition, % at 35 µM | 290,000 tested, 1% active | AID 2014;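 active = 50% or more with normal probe brightness, or confirmed in later tests; about a fifth of its hits are not listed in these tables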;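 also: calls also rest on retests at 20 µM and on dose response follow-up; controls were probe without protein and protein plus probe with vehicle; some compounds called inactive have numbers as strong as hits; many hits fall short of the cut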
eIF4H inh retest = second read-out of eIF4H inh, no call of its own (marks repeat the call); inhibition, %; compound at 20 µM; confirmation average;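 mean of two retest wells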
PABP FP inh retest = further read-out of PABP FP inh, marked with its call; inhibition, %; compound at 20 µM; confirmation repeats;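 mean of two retest wells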
MT1-MMP act inh RFP = recorded beside MT1-MMP act inh, whose call it bears; RFP signal change, %; measured here: RFP expression control read;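 0 = vehicle wells; hits needed this value within 50% of zero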
* hit, by the source's call. No enrichment for hits; overall some 2.9% were active at least once.

For CC1(CCc2ccccc2)NC(=O)N(CC(=O)O)C1=O (centres undefined) the results were Env fusion inh -7, MT1-MMP act inh 1, CSC inhib -19, eIF4H inh -3, UUG fidelity -1, Rce1 inh inactive, PABP FP inh 9 and MT1-MMP act inh RFP 7.
For Cc1c(NC(=O)c2cccs2)cccc1C(=O)O the results were Env fusion inh -81, MT1-MMP act inh 9, CSC inhib 9, eIF4H inh 0, UUG fidelity -20, PABP FP inh 8 and MT1-MMP act inh RFP 7.
`OC[C@@H]1CN(Cc2ccccc2)C[C@H](n2cnc3c(NCc4ccco4)ncnc32)O1` gave Env fusion inh -4, MT1-MMP act inh 0, UUG fidelity -10 and MT1-MMP act inh RFP 1.
Screening COc1ccc(Br)cc1-c1nc(CCl)cs1 returned Env fusion inh 6, MT1-MMP act inh -5, CSC inhib 13, eIF4H inh -8, Rce1 inh inactive, PABP FP inh 0 and MT1-MMP act inh RFP -1.
For CC(=O)c1ccc(NC(=S)Nc2cccc3cnccc23)cc1 the results were Env fusion inh -7, MT1-MMP act inh 7, CSC inhib -10, eIF4H inh 48, Rce1 inh inactive, PABP FP inh 40 and MT1-MMP act inh RFP -8.
For CC(C)(C)c1ccc(CC(=O)N2CCC2(C)C(=O)NS(=O)(=O)c2ccc(F)cc2F)cc1 (centres undefined) the results were Env fusion inh -15, MT1-MMP act inh -1, UUG fidelity -6 and MT1-MMP act inh RFP 2.
`CC(=O)c1cc(C(C)=O)c(C)nc1C` gave Env fusion inh 1, MT1-MMP act inh -4, CSC inhib -12, eIF4H inh 5, UUG fidelity -6, Rce1 inh inactive, PABP FP inh 5 and MT1-MMP act inh RFP 1.
CCN(CC)C(=O)Oc1ccc(NC(C)=O)cc1 was read as Env fusion inh -26, MT1-MMP act inh 1, CSC inhib -7, eIF4H inh -5, UUG fidelity -18, Rce1 inh inactive, PABP FP inh -10 and MT1-MMP act inh RFP 4.
`O=C(Cn1cnc2c(nnn2Cc2ccc(F)cc2)c1=O)NCc1ccco1` gave Env fusion inh -17, MT1-MMP act inh 5, CSC inhib 7, eIF4H inh 14, UUG fidelity -7, Rce1 inh inactive, PABP FP inh 1 and MT1-MMP act inh RFP 4.
For Cc1ccc(-n2ncc3c(N4CCN(c5ccc(F)cc5)CC4)ncnc32)c(C)c1 the results were MT1-MMP act inh 1, CSC inhib 9, eIF4H inh 10, UUG fidelity -11, Rce1 inh inactive, PABP FP inh 3 and MT1-MMP act inh RFP -15.
`COc1ccc(N(C(=O)c2cccnc2)S(=O)(=O)c2ccccc2)cc1` gave Env fusion inh -3, MT1-MMP act inh -4, CSC inhib -3, eIF4H inh -6, UUG fidelity 6, Rce1 inh inactive, PABP FP inh -1 and MT1-MMP act inh RFP 0.
Screening C=Cc1ccc(Cn2c(C)c(C(=O)NCc3ccc(C#N)cc3)sc2=O)cc1 returned Env fusion inh 11, MT1-MMP act inh 1, UUG fidelity -19 and MT1-MMP act inh RFP -14.

For convenience, part of the list above:
For CC1(CCc2ccccc2)NC(=O)N(CC(=O)O)C1=O (centres undefined) the results were Env fusion inh -7, MT1-MMP act inh 1, CSC inhib -19, eIF4H inh -3, UUG fidelity -1, Rce1 inh inactive, PABP FP inh 9 and MT1-MMP act inh RFP 7.
For Cc1c(NC(=O)c2cccs2)cccc1C(=O)O the results were Env fusion inh -81, MT1-MMP act inh 9, CSC inhib 9, eIF4H inh 0, UUG fidelity -20, PABP FP inh 8 and MT1-MMP act inh RFP 7.
`OC[C@@H]1CN(Cc2ccccc2)C[C@H](n2cnc3c(NCc4ccco4)ncnc32)O1` gave Env fusion inh -4, MT1-MMP act inh 0, UUG fidelity -10 and MT1-MMP act inh RFP 1.
Screening COc1ccc(Br)cc1-c1nc(CCl)cs1 returned Env fusion inh 6, MT1-MMP act inh -5, CSC inhib 13, eIF4H inh -8, Rce1 inh inactive, PABP FP inh 0 and MT1-MMP act inh RFP -1.
For CC(=O)c1ccc(NC(=S)Nc2cccc3cnccc23)cc1 the results were Env fusion inh -7, MT1-MMP act inh 7, CSC inhib -10, eIF4H inh 48, Rce1 inh inactive, PABP FP inh 40 and MT1-MMP act inh RFP -8.
For CC(C)(C)c1ccc(CC(=O)N2CCC2(C)C(=O)NS(=O)(=O)c2ccc(F)cc2F)cc1 (centres undefined) the results were Env fusion inh -15, MT1-MMP act inh -1, UUG fidelity -6 and MT1-MMP act inh RFP 2.
`CC(=O)c1cc(C(C)=O)c(C)nc1C` gave Env fusion inh 1, MT1-MMP act inh -4, CSC inhib -12, eIF4H inh 5, UUG fidelity -6, Rce1 inh inactive, PABP FP inh 5 and MT1-MMP act inh RFP 1.
CCN(CC)C(=O)Oc1ccc(NC(C)=O)cc1 was read as Env fusion inh -26, MT1-MMP act inh 1, CSC inhib -7, eIF4H inh -5, UUG fidelity -18, Rce1 inh inactive, PABP FP inh -10 and MT1-MMP act inh RFP 4.

Following part.
Screening CC(=O)c1ccc(S(=O)(=O)NCCC(=O)N2CCN(c3ccccn3)CC2)cc1 returned Env fusion inh -6, MT1-MMP act inh 1, UUG fidelity -10 and MT1-MMP act inh RFP 3.
`O=C(COc1ccc(Cl)cc1Cl)NCC1(N2CCOCC2)CCCCC1` gave Env fusion inh 26, MT1-MMP act inh 4, CSC inhib -10, UUG fidelity 10 and MT1-MMP act inh RFP -19.
Screening COC1c2ccccc2C(=O)N1CCc1ccc(Cl)cc1 (centres undefined) returned Env fusion inh -25, MT1-MMP act inh -1, CSC inhib -1, eIF4H inh -3, UUG fidelity 11, Rce1 inh inactive, PABP FP inh -6 and MT1-MMP act inh RFP -5.
COc1cccc(C(=O)C2CCCN(C(=O)c3ccc(C#CC(C)(C)O)cc3)C2)c1 (centres undefined) was read as Env fusion inh -2, MT1-MMP act inh -8, CSC inhib 15, eIF4H inh -2, Rce1 inh inactive, PABP FP inh -7 and MT1-MMP act inh RFP -1.
N#CC1=C(SCC(=O)NC2CCCCC2)NC(=O)CC1c1ccco1 (centres undefined) was read as MT1-MMP act inh 6, CSC inhib -4, eIF4H inh -4, Rce1 inh inactive, PABP FP inh 3 and MT1-MMP act inh RFP 7.
Screening O=C(O)CC1S/C(=N/N=C/c2ccc(-c3ccc(Cl)c([N+](=O)[O-])c3)o2)NC1=O (centres undefined) returned Env fusion inh -7, MT1-MMP act inh 3, CSC inhib 3, eIF4H inh 86, Rce1 inh inactive, PABP FP inh 16, eIF4H inh retest -8, PABP FP inh retest 2 and MT1-MMP act inh RFP -1.
For CC(C)N(C(=S)NCc1ccccc1)c1ccccc1 the results were Env fusion inh -3, MT1-MMP act inh -4, CSC inhib -6, eIF4H inh 0, Rce1 inh inactive, PABP FP inh 1 and MT1-MMP act inh RFP 0.
Screening O=C(OCc1ccccc1)N1CCC2CC1c1ccc(N3CCNCC3)cc12 (centres undefined) returned Env fusion inh 11, MT1-MMP act inh -3, UUG fidelity -13 and MT1-MMP act inh RFP -13.
For COC(=O)Cc1ccc(NC(=S)NCc2ccco2)cc1 the results were Env fusion inh 1, MT1-MMP act inh -2, CSC inhib -9, eIF4H inh 2, UUG fidelity -30, Rce1 inh inactive, PABP FP inh -9 and MT1-MMP act inh RFP 1.
